Bioassay records (PubChem)
Sfp inh: blocks B. subtilis Sfp PPTase activity; Q9F4F7; Biochemical Sfp PPTase activity, qHTS; Potency, µM, without a hit: max response, negative = inhibition, most hits filed as inhibitors; 310,000 compounds, 3.5% hits; AID 1490; active means well fitted inhibition curve with a large enough effect; inconclusive means small, poorly fitted or top-dose-only effect, or another doubt; inactive means no such curve, though single readings can be large or run the other way;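 further: the enzyme is Sfp with the accession as filed and its product quenches rhodamine fluorescence; potency means the concentration at half of the fitted maximal effect; 0% = enzyme reaction without inhibitor and -100% = no enzyme wells; top concentration of the series not given in the record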
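With Hepes-Na pH 7.6 buffer containing 10 mM MgCl2, Sfp (15 nM) modified BHQ-2-YbbR (12.5 uM) using rhodamine-CoA (5 uM). Two reads 30 minutes apart at 525/598 nm yielded each well's rate.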
gsp antag: gsp mutant antagonism. gsp-mutant cells, cAMP HTRF, 30 min; control for the full effect not named in the record. Potency, µM (top dose mostly 76.9 µM), for the others: at the highest dose activity change, negative = inhibition, actives largely listed as inhibitors. 340,000 compounds, 0.4% hits. AID 624288; active = falling curve of any shape with a large fitted effect; inconclusive = falling curve, mostly with a smaller effect; inactive = flat or rising curve; cell line not stated here;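 further: intracellular cAMP measured with PDE inhibitor Ro 20-1724 present during compound exposure; potency means the concentration at half of the fitted maximal effect; on the % scale 0 is the no-effect control and ±100 the full control effect; nearly all actives have a fitted effect of over 65% in size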
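Measurement of cellular cAMP by homogeneous time-resolved fluorescence following a 30 min compound exposure at 37C. The PDE inhibitor […] was present throughout; the assay buffer was DPBS with 0.05% BSA and 0.005% Tween 20.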
ClpP mod: qHTS Assay for Activators of ClpP. ATP-dependent Clp protease proteolytic subunit (Bacillus subtilis (strain 168)), P80244. purified B. subtilis ClpP, FRET peptide cleavage, 20 min. Potency, µM (doses to about 57.5 µM), inactives show at the highest dose activity change, negative = active. 340,000 compounds, 1.9% hits. AID 651965, 2013; active = well fitted falling curve with a large enough effect; inconclusive = small, poorly fitted or top-dose-only effect; inactive = no such curve, though single readings can be large or run the other way; further: potency means the concentration at half of the fitted maximal effect; the source files actives as falling curves though it sought activators and does not explain the sign; nearly all actives have a fitted effect of over 65% in size; many hits overshoot -100%
Target sequence (P80244 whole entry, looked up): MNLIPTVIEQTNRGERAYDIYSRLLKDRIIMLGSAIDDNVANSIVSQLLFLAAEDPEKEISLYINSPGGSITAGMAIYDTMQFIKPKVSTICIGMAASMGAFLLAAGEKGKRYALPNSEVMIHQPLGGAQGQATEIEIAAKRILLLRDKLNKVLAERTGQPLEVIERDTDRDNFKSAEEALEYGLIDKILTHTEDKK
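ClpP 10 microg/mL final, pH 8 Tris/KCl buffer with BSA, glycerol, Tween-20; compound pinned in; FRET-FV substrate; RT 20 min; Ex320/Em430; ΔFRET vs ADEP 5.8 microM, DMSO, no enzyme.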
PINK1 expr mod: PINK1 expression modulation. 410,000 compounds, 0.2% hits. Potency, µM (titrated, usually from 76.6 µM), inactives show at the top dose activation (PINK1 increase), hits mostly activators. AID 624263. PINK1 immunofluorescence, high-content cytometry, 24 h; active = well fitted activation curve with a large enough effect; inconclusive = small, poorly fitted or top-dose-only effect; inactive = flat fitted curve, though single readings scatter; cell line not stated here;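 further: potency means the concentration at half of the fitted maximal effect; % of control where 0% means no effect; nearly all actives have a fitted effect of over 65% in size; a mitochondrial uncoupler was the plate control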
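Compound titrations (5 concentrations, 24 h) on a stable cell line; DMSO and CCCP controls. Endpoint: fixed-cell PINK1 immunofluorescence with mitochondrial, cell and nuclear markers, scanned by microplate cytometer.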
D2 ag: human D2 receptor agonism in beta-arrestin assay | P14416 | DiscoveRx PathHunter D2 beta-arrestin, luminescence, 90 min; 100% = 57 uM dopamine signal | activation, % (no concentration beside the values) | 360,000 compounds, 0.084% hits | AID 624465; in the data active = activation above about 40%; inconclusive = about 15% to 40%; inactive = below about 15%; further: compound concentration not given in the record; the text of the record calls up to 30% inactive
Target sequence (P14416 whole entry, looked up): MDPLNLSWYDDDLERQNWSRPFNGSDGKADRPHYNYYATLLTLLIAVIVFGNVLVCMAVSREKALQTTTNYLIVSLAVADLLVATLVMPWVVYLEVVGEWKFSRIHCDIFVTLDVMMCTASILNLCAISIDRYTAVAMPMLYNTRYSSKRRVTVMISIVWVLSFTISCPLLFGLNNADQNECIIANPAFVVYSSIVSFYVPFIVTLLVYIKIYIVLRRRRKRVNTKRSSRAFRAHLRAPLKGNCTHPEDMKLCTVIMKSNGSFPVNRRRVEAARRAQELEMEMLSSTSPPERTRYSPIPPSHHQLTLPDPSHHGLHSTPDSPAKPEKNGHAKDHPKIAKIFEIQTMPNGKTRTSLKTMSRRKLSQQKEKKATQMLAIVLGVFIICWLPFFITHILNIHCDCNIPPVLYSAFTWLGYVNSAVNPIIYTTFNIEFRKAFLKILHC
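DiscoveRx PathHunter D2 beta-arrestin cells (2,100/well) attached overnight, then compound-stimulated 90 min at 37 C in HBSS/10 mM HEPES/0.1% Tween-20 buffer; beta-galactosidase complementation read by luminescence after 1 h at ambient temperature. Dopamine 57 uM final (EC100) as control.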
Menin-MLL FL inh: inhibitors of human menin-MLL interaction, wild-type MLL peptide. FP activity change, % at 61.4 µM. 290,000 tested, under 10 active. Fluorescence polarization, fluorescein-MLL peptide displacement from menin; inconclusive = falling polarisation curve, or a change in total fluorescence; inactive = total fluorescence flat and polarisation flat or rising; no compound was filed as active; the % refers to the polarisation; negative = inhibition;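 further: % of control where 0% means no effect; inhibitors lower the polarisation; unlabelled MLL peptide was the positive control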
gsp ag: activates gsp, the McCune-Albright syndrome mutation | gsp mutant cells, cAMP HTRF, 30 min; control for the full effect not named in the record | Potency, µM (series often up to 76.9 µM), inactives show top-dose activation (cAMP increase), hits mostly activators | 340,000 compounds, 0.13% hits; active = well fitted activation curve with a large enough effect; inconclusive = small, poorly fitted or top-dose-only effect, or another doubt; inactive = no such curve, though single readings can be large or run the other way; cell line not stated here;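 further: phosphodiesterase inhibitor Ro 20-1724 added with compounds to block cAMP breakdown; potency means the concentration at half of the fitted maximal effect; nearly all actives have a fitted effect of over 60% in size; about a fifth of the inactives were tested at one dose only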
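Cells stably selected in G418 were plated at 2000/well, grown 16-24 hr, then given compounds in DMSO with the PDE inhibitor […] (300 uM solution added) for 30 min at 37C; cAMP was read by HTRF.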
* = called active by the depositor; ? = inconclusive; nt = no result given; [ ] = remark or other dose.

SMILES | Sfp inh | gsp antag | ClpP mod | PINK1 expr mod | D2 ag | Menin-MLL FL inh | gsp ag
CCc1cccc(NC(=O)Cn2cc3c(n2)CCCC3)c1 | 9% | 7% | -0.2% | 3.4% | 1.7 | 2.8 | ?
Cc1ccc(S(=O)(=O)N2[C@@H](c3ccc(Br)cc3)C(C(=O)O)=CC[C@H]2c2cccc(C)c2)cc1 | nt | 2% | 0.6% | 0.2% | -0.9 | nt | nt
NC(=O)c1ccc(N=Cc2ccc([N+](=O)[O-])s2)cc1 | -4% | -26% | -3.2% | -2.5% | 4.3 | nt | -40%[inhibitor]
Cc1ccc(-c2nn(C(C)(C)C)c3ncnc(NS(=O)(=O)c4ccc([N+](=O)[O-])cc4)c23)cc1 | -4% | ? | nt | 2.1% | -1.5 | -2.2 | 3%[15.4 µM]
CCN(CC(=O)Nc1ccc(N2CCOCC2)cc1)Cc1nc2ccccc2c(=O)[nH]1 | ? | -1% | -4.1% | -1.5% | 0.2 | 0.6 | ?
COc1cccc(OCC(=O)Nc2c3c(nn2-c2ccccc2)CS(=O)(=O)C3)c1 | -29% | -4% | -4.9% | -1.3% | 3.5 | 1.6 | -14%
O=C(c1ccc(NC(=O)C2(c3ccccc3)CCOCC2)cc1)N1CCOCC1 | -9% | -6% | 0.8% | -1.9% | -1.2 | -0.2 | -23%
CCOc1ccc(N2C(=O)CC(SCC(=O)O)C2=O)cc1 (stereo unspecified) | 3% | nt | nt | 1.9% | -3.0 | -4.2 | -1%[15.4 µM]
COc1ccc2cc(-c3ccsc3)ncc2c1 | nt | -5% | -18% | -1.2% | 0.8 | nt | nt
CSCCC(NC(N)=O)C(=O)N(C)CC(=O)Nc1ccc(C)cc1 (stereo unspecified) | 23% | 7% | -3.6% | 1.5% | -1.7 | 3.3 | 7%
Cc1ccccc1OCCn1cnc2cc([N+](=O)[O-])ccc2c1=O | 2% | -14% | nt | 1.2% | 3.4 | -0.5 | -5%[15.4 µM]
N#CCC(=O)N/N=C/c1c(-c2ccccc2)n(-c2ccccc2)c2ccccc12 | 56µM* | ? | nt | ? | -7.6 | -4.8 | -5%[15.4 µM]
CCOC(=O)CCc1c(C)nc(SCCN2CCCC2)c(C#N)c1C | -4% | 0% | -0.7% | -0.3% | -2.0 | 4.3 | -3%
CC(=O)Sc1nc(-c2ccccc2)[nH]c1S(=O)(=O)c1ccc(C)cc1 | 2.5µM* | -15% | nt | 0.9% | -3.2 | 0.9 | -7%[15.4 µM]
Cc1nc(SC(C(N)=O)c2ccccc2)c(C#N)c(C)c1C (stereo unspecified) | 0% | 8% | 45% | 8.4% | 4.6 | 6.2 | 3%[15.4 µM]
CCOC(=O)N/N=C1\CCc2ccccc21 | ? | 19% | 32µM* | 3.0% | -2.7 | 1.8 | -30%
O=C1CCc2cc(S(=O)(=O)N3CCN(c4ccccc4F)CC3)ccc2N1 | 10% | -9% | -1.7% | -4.4%[38.3 µM] | 3.1 | -1.1 | -10%
CCC(CC)C(=O)c1c[nH]c(C(=O)NCc2cccs2)c1 | 17% | 12% | -0.9% | 3.0% | -0.9 | 0.0 | -8%
C=CCn1c(CCCNC(=O)CCC)nc2ccccc21 | -5% | -7% | 0.3% | nt | -2.8 | 2.5 | -14%
O=C1c2oc3ccc(Cl)cc3c(=O)c2C(c2ccco2)N1CCN1CCOCC1 (stereo unspecified) | 1% | -6% | -14% | -1.0% | -0.8 | ? | ?
O=C(CCN1CCCCC1)Nc1ccc(F)c(F)c1 | nt | nt | 0.1% | -0.2% | -1.7 | nt | -34%
COc1ccc(C2CC(=O)C(C=NCCN3CCOCC3)=C(O)C2)cc1 (stereo unspecified) | 7% | 1% | 0.5% | 0.2% | -4.1 | 2.6 | 9%
Cc1ccc(C(=O)N2CCN(C(=O)C3CCCO3)CC2)cc1 (stereo unspecified) | nt | 4% | -1.9% | 0.0% | 14 | nt | 13%
O=C(N[C@@H](Cc1ccccc1)C(=O)N1CCN(S(=O)(=O)c2cccc(F)c2)CC1)c1ccco1 | nt | 5% | 0.7% | 0.7% | 9.7 | nt | 19%
CCOC(=O)c1cnc2ccc(OCC)cc2c1N1CCN(c2ccccc2)CC1 | ? | -7% | -6.8% | -2.5% | -2.5 | 6.4 | -1%
Cc1cc(Br)cc(Cl)c1OC(=O)c1cnccn1 | 10% | 0% | nt | 0.4% | -2.8 | 5.8 | -11%[15.4 µM]
CCN(CC)C(=O)c1ccccc1NS(C)(=O)=O | -5% | 5% | nt | 1.2% | 0.3 | -5.5 | -18%[15.4 µM]
O=C(CN1CCCC1)Nc1ccccc1Sc1ccc(Cl)cc1 | 79µM* | -14% | -17% | 13% | -0.9 | -1.5 | 0%[15.4 µM]
COc1ccc(/C=N/N=C2/C(=O)Nc3ccccc32)cc1O | 10% | -12% | nt | 1.0% | 9.0 | -3.6 | -24%[15.4 µM]
O=C(Cc1ccc(Cl)c(Cl)c1)Nc1cccc(S(=O)(=O)N2CCOCC2)c1 | -2% | -15% | -12% | ? | 3.1 | -1.8 | -5%[15.4 µM]
COc1ccc(S(=O)(=O)Nc2c(C)n(C)n(-c3ccccc3)c2=O)cc1 | 4% | 1% | -0.2% | 1.4%[38.3 µM] | -1.0 | 0.3 | 12%
CCOc1ccc(N(CC(=O)NCc2ccc(F)cc2)C(=O)CCC(=O)Nc2nccs2)cc1 | -7% | -6% | nt | 3.7% | -0.3 | 4.3 | ?
C[C@]12c3[nH]c4cc(-c5ccco5)ccc4c3CCN1C(=O)[C@@H](CC(=O)NCc1ccco1)C[C@@H]2C(=O)N1CCOCC1 | nt | -8% | 3.5% | 2.3% | -0.7 | nt | nt
Cc1ccccc1NC(=O)CSCc1nc(N)nc(Nc2ccccc2C)n1 | 13% | -11% | nt | 0.7% | -1.3 | 5.7 | -2%[15.4 µM]
Cc1ccccc1OCC(=O)OCC(=O)c1c[nH]c2ccccc12 | nt | 0% | -0.2% | 0.5% | 6.4 | nt | -23%
CCCCN(CC)C(=O)Cn1cnc2ccc(S(=O)(=O)N3CCC(C)CC3)cc2c1=O | -13% | 8% | ? | 12% | -3.5 | 2.9 | -28%
CN(C(=O)CSc1nc2ccccc2c(=O)n1-c1ccccc1Cl)C1CCS(=O)(=O)C1 (stereo unspecified) | nt | -2% | nt | 0.8% | -2.9 | nt | -34%
Cc1ccc(NC(=S)NC(=O)c2ccc(-c3ccccc3)cc2)c(C)c1 | 8% | 4% | -4.1% | -0.3% | -4.3 | -0.7 | -5%
COCOc1ccc(/C=C/C(=O)c2c(O)cc(OCOC)cc2OCOC)cc1 | nt | -17% | 0.1% | 4.4% | -1.5 | nt | nt
C/C(=N/NC(=O)c1ccc(C)s1)c1cccc(NC(=O)COc2ccc(Cl)cc2Cl)c1 | -18% | -1% | 50% | 0.6% | -3.5 | 2.4 | -11%
CC(=O)Nc1cccc(C(=O)N/N=C/c2ccc(C)o2)c1 | 14% | 5% | nt | 0.5% | -1.6 | -2.9 | -42%
CCc1nnc(SCC(=O)Nc2ccc(N3CCOCC3)cc2)o1 | 8% | 0% | -0.9% | -1.2% | 0.0 | 0.1 | ?
Cc1cccc(N(CC(=O)NCC2CCCO2)C(=O)CCC(=O)Nc2cc(C)on2)c1 (stereo unspecified) | 9% | 2% | -1.1% | -1.6% | -0.5 | -0.5 | -19%
Cc1occc1C(=O)N1CCN(c2ncccn2)CC1 | 20% | 6% | -6.6% | -0.9% | -0.9 | 4.1 | 21%
Cc1ccc(OCC(=O)NCC(=O)n2nc(C)cc2C)cc1 | 14% | 6% | -12% | 1.0% | -5.1 | -1.4 | 5%[15.4 µM]
CCOc1ccc(NC(=S)NC(=O)c2c(Cl)c(C)nn2C)c([N+](=O)[O-])c1 | ? | -8% | -7.9% | 8.0% | -2.6 | 1.9 | -41%[inhibitor]
CC(C)N1C[C@@]23C=C[C@@H](O2)C(C(=O)OCc2ccccc2)[C@H]3C1=O (stereo partly specified) | 9% | -1% | -0.1% | -0.2% | -1.8 | -2.3 | 2%
O=C(NN=C1CCCCCC1)c1ccc2c(c1)OCO2 | -3% | 10% | nt | -0.3% | 1.7 | 0.3 | 1%
Cc1ccc2oc(=O)n(Cc3ccccc3)c2c1 | -5% | -1% | nt | 0.9% | 1.9 | 0.5 | 23%
CCOC(=O)Cc1nnc(NC(=O)CSc2nnc3c(n2)[nH]c2ccccc23)s1 | -5% | ? | nt | 0.4% | -1.5 | -0.5 | 4%[15.4 µM]
Cc1cccc(-c2c3c(=O)n(C)c(=O)n(C)c3c3nnc4ccccc4n23)c1 | nt | 14% | -0.4% | ? | -4.0 | nt | -6%[15.4 µM]
Cn1c(=NC(=O)CCl)sc2ccccc21 | 5% | ? | ? | -1.8% | -0.4 | 1.3 | -3%
CCOC(=O)C1(CCCc2ccccc2)CCN(C(=O)c2n[nH]c(CC)c2C)CC1 | nt | nt | -3.2% | 29% | 1.1 | nt | -7%
c1ccc2c(c1)nc(-c1ccncc1)n2CCNc1nc(CN2CCCCC2)cs1 | -20% | 8% | -2.0% | -0.1% | -3.9 | -7.9 | nt
O=C1CC(C(=O)Nc2ccccc2C(=O)O)C(c2ccccc2)O1 (stereo unspecified) | 21% | 8% | 0.7% | 0.7% | -4.7 | -2.1 | 10%
Cc1ccc(NC(=O)Cc2ccccc2)cc1S(=O)(=O)N1CCOCC1 | nt | 8% | -0.4% | -0.1% | 3.2 | nt | 4%
COc1ccccc1CNC(=O)CCc1nnc2ccc(NCCCN3CCCC3=O)nn12 | 12% | 19% | -7.6% | 1.1% | 0.9 | 4.1 | ?
CCOC(=O)N1CCN(C(=O)Cn2nc(C)n3nc(-c4ccc(CC)cc4)cc3c2=O)CC1 | 8% | -2% | -4.7% | 5.0% | 0.9 | nt | 15%
